VDR inh = vitamin D3 receptor (human) inhibition; P11473; VDR-SRC2-3 peptide fluorescence polarization, 2 h; Potency, µM, for the others: max response, negative = inhibition, usual class: inhibitors; actives 0.93% (n = 400,000); AID 504847; active = well fitted inhibition curve with a large enough effect; inconclusive = small, poorly fitted or top-dose-only effect, or another doubt; inactive = no such curve, though single readings can be large or run the other way; note: series mostly up to about 120 µM
Target sequence (P11473 whole entry, looked up): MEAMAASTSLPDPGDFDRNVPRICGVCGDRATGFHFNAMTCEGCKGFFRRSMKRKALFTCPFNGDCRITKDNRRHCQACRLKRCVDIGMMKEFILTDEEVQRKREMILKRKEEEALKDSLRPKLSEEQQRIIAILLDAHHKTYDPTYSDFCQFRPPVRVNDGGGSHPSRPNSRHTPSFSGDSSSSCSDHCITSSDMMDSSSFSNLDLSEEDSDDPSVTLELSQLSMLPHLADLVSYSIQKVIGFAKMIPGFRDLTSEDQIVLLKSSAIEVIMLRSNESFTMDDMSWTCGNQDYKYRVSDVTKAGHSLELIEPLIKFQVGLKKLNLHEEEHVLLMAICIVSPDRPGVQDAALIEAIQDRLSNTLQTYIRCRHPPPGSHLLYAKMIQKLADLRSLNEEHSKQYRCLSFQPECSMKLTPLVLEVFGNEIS
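Inhibition of the VDR/SRC2-3 peptide interaction is quantified by fluorescence polarization. Compounds (23 nl, pintool) incubate with the reagents for 2 hours at ambient room temperature.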
* = called active by the depositor; [ ] = dose if it differs, or a comment. % is set by controls: 0 for no effect and ±100 for the full control effect; potency is the fitted concentration of half-maximal effect.

Preview, 13 compounds:
O=C1NN(c2ccccc2)C(=O)/C1=C/c1ccc(-c2ccc(Cl)c(C(=O)O)c2)o1 was read as VDR inh inconclusive.
Screening O=C(CS(=O)CC(=O)Nc1cccc2c1CCCC2)Nc1ccc(F)cc1 (centres undefined) returned VDR inh 2%.
Screening CCOC(=O)N1CCc2c(sc3c2c(=O)n(Cc2ccccc2)c(=O)n3Cc2cc(C)ccc2C)C1 returned VDR inh 3%.
For Cc1cccc(-n2c(=O)c3ccccc3n(Cc3ccccc3)c2=O)c1 the results were VDR inh -8%.
For Cc1ccccc1NC(=O)CN(C)S(=O)(=O)c1cccc2cccnc12 the results were VDR inh -7%.
For COc1cccc(N2CCN(C(=O)c3cc(-c4ccc(F)cc4)[nH]c3C)CC2)c1 the results were VDR inh -21%.
O=C(Cn1cncn1)NCc1ccccc1Br was read as VDR inh 3%.
Screening CC(C)C(C(=O)NCc1ccco1)N(C(=O)CNS(=O)(=O)c1ccc(Cl)cc1)C1CCCC1 (centres undefined) returned VDR inh 6%.
Screening Cc1cc(C)c(NC(=O)CSc2nc(=O)n(Cc3cccnc3)c3c2CCC3)c(C)c1 returned VDR inh 9%.
CN(C)CC(=O)N1c2ccccc2Sc2ccc(Cl)cc21 was read as VDR inh 6%.
O=C1c2ccccc2C(=O)N1CCC#Cc1ccc2cc(CCCO)oc(=O)c2c1 was read as VDR inh 13%.
`O=C(NCc1cccnc1)c1cccc(Cl)c1` gave VDR inh -3%.
For CN(C)S(=O)(=O)c1ccc(C(=O)N2CC(=O)Nc3ccc(Br)cc3C2c2ccc(F)cc2)cc1 (centres undefined) the results were VDR inh -1%.

This part in full, previewed entries included:
O=C1NN(c2ccccc2)C(=O)/C1=C/c1ccc(-c2ccc(Cl)c(C(=O)O)c2)o1 was read as VDR inh inconclusive.
Screening O=C(CS(=O)CC(=O)Nc1cccc2c1CCCC2)Nc1ccc(F)cc1 (centres undefined) returned VDR inh 2%.
Screening CCOC(=O)N1CCc2c(sc3c2c(=O)n(Cc2ccccc2)c(=O)n3Cc2cc(C)ccc2C)C1 returned VDR inh 3%.
For Cc1cccc(-n2c(=O)c3ccccc3n(Cc3ccccc3)c2=O)c1 the results were VDR inh -8%.
For Cc1ccccc1NC(=O)CN(C)S(=O)(=O)c1cccc2cccnc12 the results were VDR inh -7%.
For COc1cccc(N2CCN(C(=O)c3cc(-c4ccc(F)cc4)[nH]c3C)CC2)c1 the results were VDR inh -21%.
O=C(Cn1cncn1)NCc1ccccc1Br was read as VDR inh 3%.
Screening CC(C)C(C(=O)NCc1ccco1)N(C(=O)CNS(=O)(=O)c1ccc(Cl)cc1)C1CCCC1 (centres undefined) returned VDR inh 6%.
Screening Cc1cc(C)c(NC(=O)CSc2nc(=O)n(Cc3cccnc3)c3c2CCC3)c(C)c1 returned VDR inh 9%.
CN(C)CC(=O)N1c2ccccc2Sc2ccc(Cl)cc21 was read as VDR inh 6%.
O=C1c2ccccc2C(=O)N1CCC#Cc1ccc2cc(CCCO)oc(=O)c2c1 was read as VDR inh 13%.
`O=C(NCc1cccnc1)c1cccc(Cl)c1` gave VDR inh -3%.
For CN(C)S(=O)(=O)c1ccc(C(=O)N2CC(=O)Nc3ccc(Br)cc3C2c2ccc(F)cc2)cc1 (centres undefined) the results were VDR inh -1%.
CCOc1ccccc1N(C)C(=O)CCS(=O)(=O)c1ccc2c(c1)NC(=O)C(C)S2 (centres undefined) was read as VDR inh inconclusive.
COc1ccccc1N1CCN(S(=O)(=O)CCNC(=O)Cc2ccc(F)cc2)CC1 was read as VDR inh inconclusive.
For CC(C)CCNC(=O)CN(Cc1ccc(F)cc1)C(=O)CCC(=O)Nc1ccccn1 the results were VDR inh -6%.
For CC(c1ccccc1)n1cc(C(=O)NCCCn2ccnc2)nn1 (centres undefined) the results were VDR inh 16%.
`CC(C(=O)NCCC1=CCCCC1)N1C(=O)c2ccccc2C1=O` (centres undefined) gave VDR inh 4%.
`CCOC(=O)C1(Cc2cccc(F)c2)CCN(CCCn2cccn2)CC1` gave VDR inh -3%.
For CCOC(=O)N1CCN(C(=O)c2ccc3c(c2)N(Cc2ccccc2)CCS3)CC1 the results were VDR inh -13%.
For COc1cccc(CNCc2ccccn2)c1OC the results were VDR inh -7%.
For Cc1nc(Sc2ccc(Br)cc2)c(C#N)c(C)c1[N+](=O)[O-] the results were VDR inh 3%.
COc1ccc(NC(=O)NNC(=O)C(C)Oc2ccc3ccccc3c2)cc1OC (centres undefined) was read as VDR inh 1%.
Screening Cc1nn(-c2ccccc2)c2c1C(c1ccc(Br)s1)C(C#N)=C(N)O2 (centres undefined) returned VDR inh -27%.
O=C(N/N=C/c1ccc([N+](=O)[O-])cc1)c1cc(C2CC2)nc2ccccc12 was read as VDR inh -1%.
c1cc(CNCCNCc2ccncc2)ccn1 was read as VDR inh 1%.
For CCN1CCN(Cc2ccc(NC(=O)c3cc(NC(=O)c4cncc(-c5cccs5)c4)cc(OC)c3)cc2C(F)(F)F)CC1 the results were VDR inh 61%[activator].
COc1cc(C)ccc1OCCOCCOc1cc(C)c(C)cc1Br was read as VDR inh -4%.
Screening CCCN(C(=O)C1CSC2(C)CCC(=O)N12)c1c(N)n(Cc2ccccc2)c(=O)[nH]c1=O (centres undefined) returned VDR inh 2%.
Screening CCCOc1ccc(CNC(=O)C(NS(=O)(=O)c2cccs2)C(C)C)cc1 (centres undefined) returned VDR inh 5%.
Cc1ccc(S(=O)(=O)NCc2ccc(C(=O)N3CCc4ccccc4C3)cc2)cc1 was read as VDR inh 9%.
`Cc1ccccc1OCC(=O)Nc1cc(S(=O)(=O)N2CCCCC2)ccc1N1CCN(C)CC1` gave VDR inh 2%.
Screening C=CC[n+]1ccn(-c2nc3ccccc3nc2[N-]S(=O)(=O)c2cccs2)c1 returned VDR inh -5%.
Screening CCN(CC)S(=O)(=O)c1ccc(/C=C/C(=O)NC2CCCCC2)cc1 returned VDR inh -15%.
For O=C(CN(c1ccccc1)S(=O)(=O)c1ccccc1)NCCSc1nc2ccccc2s1 the results were VDR inh 22%.
`COc1ccc2c(c1)C(=O)N1[C@H]3c4cc(C)ccc4OC[C@@H]3[C@H](c3ccccc3)[C@]1(C)C(=O)N2` gave VDR inh -8%.
For COC(=O)C1=C(CSCc2ccccc2)NC(=O)NC1c1cc(C)ccc1C (centres undefined) the results were VDR inh 7%.
Screening O=C(Cc1ccccn1)c1ccc(F)cc1 returned VDR inh -11%.
O=C(Cn1cc(C(F)(F)F)ccc1=O)NCC1CCCO1 (centres undefined) was read as VDR inh -6%.
`C#CCOCCOCCOCCNc1nc(N2CCN(C(=O)Cn3cc(CCO)nn3)CC2)nc(N2CCN(C(=O)Cn3cc(CCCN=C(N)N)nn3)CC2)n1` gave VDR inh -20%.
For CC1(c2ccc(Cl)cc2)NC(=O)N(CC(=O)N2CCN(S(=O)(=O)c3ccccc3)CC2)C1=O (centres undefined) the results were VDR inh -14%.
For CC(=O)Nc1ccc(C(=O)N2CCc3cc4c(cc3C2C)OCCCO4)cc1 (centres undefined) the results were VDR inh -3%.
For Cc1[nH]c(=S)[nH]c(=O)c1CCC1OCCO1 the results were VDR inh -6%.
O=C(O)C1=C[C@@H](c2coc3ccccc3c2=O)C[C@@H](OCc2ccc(CO)cc2)O1 was read as VDR inh -12%.
For CCCCOC(=O)n1c(SCC(=O)N(CC)CC)nc2ccccc21 the results were VDR inh -17%.
For CC1=C(C(=O)Nc2ccccc2)C(c2ccc(C)o2)n2c(s/c(=C\c3ccco3)c2=O)=N1 (centres undefined) the results were VDR inh 18%.
CCC(=O)c1ccc(N2CCN(C(=O)COc3ccc(F)cc3)CC2)c(F)c1 was read as VDR inh 2%.
Screening CC(=O)N/C(=C\c1ccccc1)C(=O)OCC(=O)NC(=O)c1ccccc1 returned VDR inh -6%.
Fc1cc2nccnc2cc1N1CCSCC1 was read as VDR inh 0%.
For CC(C)C(NC(=O)c1c(F)cccc1F)C(=O)N1CCN(c2ccccc2F)CC1 (centres undefined) the results were VDR inh 10%.
COc1cc(NC(=O)CSc2nnc(-c3ccncc3)n2C2CCCCC2)ccc1NC(=O)c1ccco1 was read as VDR inh 1%.
`CCCOc1ccc(-c2nc(C#N)c(N3CCc4ccccc4C3)o2)cc1` gave VDR inh 12%.
COc1ccc(C(=O)Nc2ccc(C)cc2C(=O)c2ccccc2)cc1 was read as VDR inh -3%.
`CC(O)c1cccc(NC(=O)CCCc2ccccc2)c1` (centres undefined) gave VDR inh 18%.
O=C(CCCN1CCC(NC(=O)c2ccccc2)CC1)c1ccc(Cl)cc1 was read as VDR inh 7%.
Screening O=C(c1ccccc1)N1CCN(CC#Cc2ccccc2)CC1 returned VDR inh 2%.
O=C(Nc1ccc(Br)cc1)C(c1ccccc1)c1ccccc1 was read as VDR inh -6%.
For Cc1ccc(CC(=O)NCc2ccc(F)cc2)cc1 the results were VDR inh 4%.
For Cc1ccc(CCNC(=O)C2CC(=O)N(CCc3ccc(C)cc3)C2)cc1 (centres undefined) the results were VDR inh 3%.
Cc1c(C)c2ccc(OCC(=O)Nc3nccs3)cc2oc1=O was read as VDR inh -8%.
For O=C1CN(C(=O)COc2ccc(Cl)cc2Cl)c2ccccc2N1 the results were VDR inh 24%.
`Cc1ccc(C(=O)N2CC(=O)Nc3ccc(C)cc3C2c2ccccc2)cc1` (centres undefined) gave VDR inh 7%.
`COc1cccc(-c2ncnn2-c2sc3c(c2C#N)CCCCC3)c1OC` gave VDR inh -16%.
O=C(CCC(=O)N1Cc2ccccc2Oc2ncccc21)NCc1cccc(Cl)c1 was read as VDR inh 13%.
For Cc1ccc([N+](=O)[O-])c(OCCN2CCCCCC2)c1 the results were VDR inh 16%.
`CC1Oc2ccccc2N(CC(=O)c2ccc(F)cc2)C1=O` (centres undefined) gave VDR inh -1%.
COC(=O)[C@H](Cc1ccccc1)NC(=O)N1CCCCC1 was read as VDR inh 9%.
Screening CCn1c(=O)cc(OCC(=O)NCc2ccccc2OC)c2ccccc21 returned VDR inh -12%.
`COc1cc(C2SC(C)C(=O)N2CCc2ccccc2)cc(OC)c1OC` (centres undefined) gave VDR inh -4%.
`Cc1ccc(Nc2ncc3c(n2)CC(C)CC3=O)c(C)c1` (centres undefined) gave VDR inh 4%.
CCC(C)Sc1cccc(-c2nc3cnccn3c2NC2CCCCC2)c1 (centres undefined) was read as VDR inh -13%.
O=C(Nc1ccccc1N1CCCC1)C1CCN(S(=O)(=O)c2ccccc2C(F)(F)F)CC1 was read as VDR inh -9%.
COC(=O)c1c(NC(=O)CS(=O)(=O)c2ccccc2)sc(C)c1C was read as VDR inh -25%.
`C[C@H](NS(=O)(=O)c1ccccc1F)C(=O)OCC(=O)Nc1ccc2c(c1)OCCO2` gave VDR inh 3%.
CCOC(=O)c1cc(-c2ccc(OC)cc2)n(CCC(=O)Nc2ccc(OC)cc2OC)c1C was read as VDR inh -4%.
For O=C(NNC1=Nc2ccccc2SC1)c1cccc([N+](=O)[O-])c1 the results were VDR inh 14%.
Screening Cc1cccnc1NC(=O)C1CC(=O)N(c2ccc3c(c2)OCCO3)C1 (centres undefined) returned VDR inh 16%.
For Cc1ccc(NC(=S)NN(C)c2nc(C)cnc2C)cc1 the results were VDR inh -12%.
`CNc1nnc(CSc2nc(C)cc(C)n2)s1` gave VDR inh 10%.
Screening CCO[C@H]1OC(C(=O)NCc2nc3ccccc3[nH]2)=C[C@@H](c2ccc(C(F)(F)F)cc2)[C@@H]1CCCO returned VDR inh -5%.
Screening CCOc1cc(/C=N/Nc2nc(-c3cccs3)c(NC(C)=O)s2)ccc1O returned VDR inh 35µM*.
For O=C(NC(=S)Nc1ccccc1Cl)C1CC1 the results were VDR inh 6%.
Screening CCOC(=O)C1(CCCc2ccccc2)CCN(C(=O)c2ccoc2)CC1 returned VDR inh -3%.
Nc1cc(-c2ccccc2)nn1S(=O)(=O)c1ccc(F)cc1 was read as VDR inh -12%.
O=C(NCc1ccc2c(c1)OCO2)c1cccc([N+](=O)[O-])c1 was read as VDR inh 6%.
Screening COc1ccc(F)cc1CN1CCN(CC(=O)Nc2ccccc2C(=O)NC2CC2)CC1 returned VDR inh 3%.
For COc1ccc(-c2[nH]ncc2-c2nc(C)cs2)c(O)c1 the results were VDR inh -9%.
O=C(CNC(=O)c1ccc(Br)o1)NC1CCCCCC1 was read as VDR inh -1%.
O=C(Nc1ccc(Cl)cc1C(=O)Nc1ccccn1)c1ccco1 was read as VDR inh 14%.
CC(C)(C)N1CC23CCC(C[C@@H]2C1=O)O3 (some centres undefined) was read as VDR inh -1%.
Screening CCOC(=O)C1=C(c2ccccc2)NC(=O)NC1c1cc(Cl)c(O)c(OC)c1 (centres undefined) returned VDR inh 2%.
Screening CCOC(=O)c1[nH]c2ccccc2c1NC(=O)COC returned VDR inh -4%.
Cc1ccccc1/C=C\c1nc2ccccc2c(=O)[nH]1 was read as VDR inh 0%.
For COCCc1nn2c(=O)cc(COC(=O)c3cccs3)nc2s1 the results were VDR inh 11%.
`Cc1ccc(S(=O)(=O)N(CCC(=O)Nc2ccc(OC(F)(F)F)cc2)c2ccccc2)cc1` gave VDR inh 14%.
Screening Cc1ccc(P(=O)(OCCN2CCOCC2)C(C)(C)C)o1 (centres undefined) returned VDR inh -13%.
COc1cc(C2C(C#N)=C(N)Oc3c2c(-c2ccccc2)nn3-c2ccccc2)cc(OC)c1OC (centres undefined) was read as VDR inh -11%.
CC(C)C(c1nnnn1CCc1ccccc1)N1CCSCC1 (centres undefined) was read as VDR inh -4%.
For CCn1c(SCC(=O)Nc2ccc3c(c2)OCCO3)nnc1-c1cccs1 the results were VDR inh 0%.
Screening O=C(COc1ccccc1-c1nnc(-c2ccccc2)o1)Nc1ccc(Br)cc1F returned VDR inh -1%.
`COc1cccc(-c2nc(CSCC(=O)NCCc3ccc(Cl)cc3)c(C)o2)c1` gave VDR inh -20%.
`CC(=O)NCCc1nc2cc(NC(=O)c3ccccc3C)ccc2n1C` gave VDR inh -7%.

Screening data from PubChem BioAssay.

An excerpt; rates above refer to the full screens.
